Screens: PubChem BioAssay, National Center for Advancing Translational Sciences (NCATS)
gsp ag – agonists of gsp mutant (McCune-Albright syndrome). 340,000 compounds, 0.13% hits. AID 624287. Potency, µM (doses to about 76.9 µM), for the others: top-dose activation (cAMP increase), actives largely listed as activators. gsp mutant cells, cAMP HTRF, 30 min; control for the full effect not named in the record; active = well fitted activation curve with a large enough effect; inconclusive = small, poorly fitted or top-dose-only effect, or another doubt; inactive = no such curve, though single readings can be large or run the other way; cell line not stated here;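 note: phosphodiesterase inhibitor Ro 20-1724 added with compounds to block cAMP breakdown; potency is the fitted concentration of half-maximal effect; nearly all actives have a fitted effect of over 60% in size; about a fifth of the inactives were tested at one dose only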
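Cells stably selected in G418 were plated at 2000/well, grown 16-24 hr, then given compounds in DMSO with the PDE inhibitor […] (300 uM solution added) for 30 min at 37C; cAMP was read by HTRF.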
ClpP mod – qHTS Assay for Activators of ClpP; Potency, µM (doses to about 57.5 µM), inactives show top-dose activity change, negative = active; purified B. subtilis ClpP, FRET peptide cleavage, 20 min; ATP-dependent Clp protease proteolytic subunit (Bacillus subtilis (strain 168)), P80244; AID 651965, 2013; 340,000 compounds, 1.9% hits; active = well fitted falling curve with a large enough effect; inconclusive = small, poorly fitted or top-dose-only effect; inactive = no such curve, though single readings can be large or run the other way; note: potency is the fitted concentration of half-maximal effect; the source files actives as falling curves though it sought activators and does not explain the sign; nearly all actives have a fitted effect of over 65% in size; many hits overshoot -100%
Target sequence (P80244 whole entry, looked up): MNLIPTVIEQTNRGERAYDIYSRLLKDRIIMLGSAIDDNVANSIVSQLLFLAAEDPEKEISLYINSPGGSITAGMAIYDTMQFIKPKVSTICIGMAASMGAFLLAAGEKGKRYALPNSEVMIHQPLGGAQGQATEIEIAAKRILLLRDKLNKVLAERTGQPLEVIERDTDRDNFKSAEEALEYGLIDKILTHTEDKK
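FRET quenching reversal measured ClpP activation: 10 microg/mL B. subtilis ClpP at pH 8 with the FRET-FV decapeptide, read at 430 nm after 320 nm excitation. The 20-min minus 0-min signal was scaled between DMSO/no-enzyme wells and ADEP (5.8 microM final).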
Sfp PPTase inh – blocks B. subtilis Sfp PPTase activity; Q9F4F7; Biochemical Sfp PPTase activity, qHTS; Potency, µM, inactives show max response, negative = inhibition, usual class: inhibitors; 310,000 compounds, 3.5% hits; AID 1490; active = well fitted inhibition curve with a large enough effect; inconclusive = small, poorly fitted or top-dose-only effect, or another doubt; inactive = no such curve, though single readings can be large or run the other way;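 note: the enzyme is Sfp with the accession as filed and its product quenches rhodamine fluorescence; potency is the fitted concentration of half-maximal effect; 0% = enzyme reaction without inhibitor and -100% = no enzyme wells; top concentration of the series not given in the record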
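Step 1, compound plus 15 nM Sfp-PPTase, 15 min, room temperature. Step 2, add rhodamine-CoA (5 uM) and BHQ-2-YbbR (12.5 uM). Step 3, read 525/598 nm fluorescence at 0 and 30 min.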
TRPML1 blocker – blocks the human TRPML1 channel; Q9GZU1; 390,000 compounds, 0.02% hits; TRPML1-inducible cells, Ca2+ dye fluorescence, FDSS; hits give low values; inhibition of EC80 agonist-evoked calcium signal; activity change, negative = inhibition, % (concentration not given with the values); in the data active means activity change below about -50%; inconclusive means about -30% to -50%; inactive means above about -30%;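 note: stimulus is agonist 54-4 at its EC80 concentration; % is set by controls: 0 for no effect and ±100 for the full control effect; the text of the record puts the active cut at -80%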
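Calcium fluorescence in TRPML1-DL cells induced overnight with Tet: a 110 s read after compound pin addition, then a 110 s antagonist read after challenge with 54-4 at 4 uM final (EC80).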
gsp antag – gsp mutant antagonism; gsp-mutant cells, cAMP HTRF, 30 min; control for the full effect not named in the record; Potency, µM (highest dose often 76.9 µM), for the others: top-dose activity change, negative = inhibition, most hits filed as inhibitors; 340,000 compounds, 0.4% hits; active = falling curve of any shape with a large fitted effect; inconclusive = falling curve, mostly with a smaller effect; inactive = flat or rising curve; cell line not stated here;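 note: intracellular cAMP measured with PDE inhibitor Ro 20-1724 present during compound exposure; potency is the fitted concentration of half-maximal effect; % is set by controls: 0 for no effect and ±100 for the full control effect; nearly all actives have a fitted effect of over 65% in size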
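HTRF cAMP measurement after 30 min RT detection following 30 min, 37C compound treatment alongside […] (added as 300 uM solution) in G418-selected cells seeded at 2000/well and grown 16–24 h.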
Menin MLL FP FL – menin-MLL binding inhibition, fluorescein peptide; Fluorescence polarization, fluorescein-MLL peptide displacement from menin; FP activity change, % at 61.4 µM; 290,000 tested, under 10 active; inconclusive = falling polarisation curve, or a change in total fluorescence; inactive = total fluorescence flat and polarisation flat or rising; no compound was filed as active; the % refers to the polarisation; negative = inhibition;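 note: % of control where 0% means no effect; inhibitors lower the polarisation; unlabelled MLL peptide was the positive control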
TRPV1 potentiator – potentiators of human vanilloid receptor 1 (TRPV1); TRPV1-expressing cells, Fluo-8 calcium influx, capsaicin EC20 potentiation; host cell line not named in the record; control for the full effect not named in the record; Q8NER1; 320,000 compounds, 0.02% hits; potentiation, % at 8.33 µM; AID 540277; active means potentiation above 80%; inconclusive means 30% to 80%; inactive means below 30%; note: 0% is about no effect
Target sequence (Q8NER1 whole entry, looked up): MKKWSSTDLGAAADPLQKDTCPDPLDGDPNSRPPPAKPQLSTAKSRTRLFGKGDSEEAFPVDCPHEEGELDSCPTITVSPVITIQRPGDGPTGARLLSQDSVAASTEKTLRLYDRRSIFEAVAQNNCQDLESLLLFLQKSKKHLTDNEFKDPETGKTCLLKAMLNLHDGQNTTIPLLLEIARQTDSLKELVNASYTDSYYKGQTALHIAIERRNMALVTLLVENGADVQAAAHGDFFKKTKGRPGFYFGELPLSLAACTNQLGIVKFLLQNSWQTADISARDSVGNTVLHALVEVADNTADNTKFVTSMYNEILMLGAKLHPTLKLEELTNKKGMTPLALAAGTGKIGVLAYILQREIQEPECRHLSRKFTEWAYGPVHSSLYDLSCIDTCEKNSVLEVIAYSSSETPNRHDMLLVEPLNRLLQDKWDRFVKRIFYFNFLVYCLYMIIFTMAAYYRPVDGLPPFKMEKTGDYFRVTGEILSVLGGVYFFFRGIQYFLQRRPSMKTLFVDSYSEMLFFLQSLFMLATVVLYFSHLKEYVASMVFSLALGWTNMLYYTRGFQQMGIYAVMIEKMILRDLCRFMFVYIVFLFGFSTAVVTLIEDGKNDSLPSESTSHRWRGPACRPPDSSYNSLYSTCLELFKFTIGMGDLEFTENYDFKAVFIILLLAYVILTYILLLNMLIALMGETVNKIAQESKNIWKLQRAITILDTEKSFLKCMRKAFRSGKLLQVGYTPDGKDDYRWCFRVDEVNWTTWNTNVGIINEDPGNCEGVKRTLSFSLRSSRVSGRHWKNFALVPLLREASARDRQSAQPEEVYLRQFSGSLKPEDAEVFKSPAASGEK
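TRPV1-expressing cells were cultured overnight at 35.5C and loaded with Fluo-8 calcium dye for 40 to 90 min at room temperature. After a 10 s baseline, compound was added and calcium influx was read kinetically for 3 min (ex 480/em 520 nm).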
The depositor's hits bear a star; & = joins results of further samples; [ ] = remark or other dose.

Screening COc1ccccc1N1C(=O)CC(N(O)c2ccccc2)C1=O (centres undefined) returned gsp ag 11%[15.4 µM], Sfp PPTase inh 9%, TRPML1 blocker 11, gsp antag 0%, Menin MLL FP FL -4.1 and TRPV1 potentiator -2.
Screening CC/C(C)=C1\SC(N2CCN(C(C)=O)CC2)=NC1=O returned gsp ag 2%, ClpP mod -10%, Sfp PPTase inh 5%, TRPML1 blocker -5, gsp antag -3%, Menin MLL FP FL 5.0 and TRPV1 potentiator -2.
`Cc1ccc(C(=O)O)cc1NC(=O)CCc1ccccc1` gave gsp ag -10%[15.4 µM], Sfp PPTase inh 19%, TRPML1 blocker -29, gsp antag 9%, Menin MLL FP FL -0.1 and TRPV1 potentiator 0.
For O=S(=O)(c1ccc2ccccc2c1)n1cnc2ccccc21 the results were gsp ag -6%, ClpP mod -9.1%, Sfp PPTase inh 0%, TRPML1 blocker -2, gsp antag -4%, Menin MLL FP FL 5.8 and TRPV1 potentiator 6.
CC(=O)Nc1ccc(SCC(=O)O)cc1 was read as gsp ag -47%[inhibitor], Sfp PPTase inh 11%, TRPML1 blocker -12, gsp antag 11%, Menin MLL FP FL -1.9 and TRPV1 potentiator -1.
For COCCCn1c(SCC(=O)Nc2nnc(C)s2)nnc1-c1ccoc1C the results were gsp ag -6%, ClpP mod -0.7%, Sfp PPTase inh 16%, TRPML1 blocker 5, gsp antag -7% and Menin MLL FP FL -1.8.
Screening CC1CCc2c(C(=O)Nc3ccccn3)csc2C1 (centres undefined) returned gsp ag 0%, ClpP mod -2.3%, Sfp PPTase inh 9%, gsp antag -1%, Menin MLL FP FL -0.6 and TRPV1 potentiator -5.
For CC(=O)Nc1cc(S(=O)(=O)Nc2ccccc2C)c(C)cc1C the results were gsp ag 5%, ClpP mod -3.1%, Sfp PPTase inh 19%, TRPML1 blocker 1, gsp antag -24%, Menin MLL FP FL 0.0 and TRPV1 potentiator -1.
For Cc1cc(OCC(=O)Nc2cccnc2)c2c(C)c(C)c(=O)oc2c1 the results were gsp ag 11%, ClpP mod inconclusive, Sfp PPTase inh 5%, TRPML1 blocker -8, gsp antag 5%, Menin MLL FP FL -2.2 and TRPV1 potentiator -25.
`CC1CCN(c2ncnc3c2cnn3Cc2ccc(Cl)cc2)CC1` gave gsp ag -16%, ClpP mod 1.6%, Sfp PPTase inh 7%, TRPML1 blocker 42, gsp antag -1%, Menin MLL FP FL -1.8 and TRPV1 potentiator -7.
Screening CNc1nc(C)cc(C)c1S(=O)(=O)c1ccc(C)cc1 returned gsp ag 20%, ClpP mod -29%, Sfp PPTase inh -9%, TRPML1 blocker 25, gsp antag 0% and Menin MLL FP FL 6.2.
For CC(=O)Nc1ccc2c(CSc3nncs3)cc(=O)oc2c1 the results were gsp ag 14%[15.4 µM], Sfp PPTase inh -2%, TRPML1 blocker 22, gsp antag -3%, Menin MLL FP FL 5.3 and TRPV1 potentiator 3.
`Cc1ccc(C(=O)NN=CC(=O)c2ccccc2)c(C)c1` gave gsp ag -38%[inhibitor], ClpP mod 0.0%, TRPML1 blocker 3 and gsp antag 4%.
Screening COC(=O)c1cc(N=CC2=C(O)CC(C)(C)CC2=O)cc(C(=O)OC)c1 returned gsp ag -24%, ClpP mod 95%, Sfp PPTase inh 18%, TRPML1 blocker 12, gsp antag -5%, Menin MLL FP FL 2.4 and TRPV1 potentiator 0.
O=C(NCCS(=O)(=O)N1CCN(c2ccccc2F)CC1)C1CC(=O)N(c2ccc(F)cc2)C1 (centres undefined) was read as gsp ag 13%, ClpP mod 0.6%&-1.0%, Sfp PPTase inh 12%, TRPML1 blocker 12&6, gsp antag 0%, Menin MLL FP FL 4.7 and TRPV1 potentiator -1.
`COc1ccc(CC(=O)OCC(=O)Nc2cc(Cl)ccc2C)cc1` gave gsp ag -21%, TRPML1 blocker 18 and gsp antag 10%.
`CCCNC(=O)Cn1cnc2sc(C(=O)N3CCN(CCC)CC3)c(C)c2c1=O` gave gsp ag inconclusive, ClpP mod -1.2%, Sfp PPTase inh 16%, TRPML1 blocker -7, gsp antag 7%, Menin MLL FP FL 0.0 and TRPV1 potentiator -11.
N=C(N)SCc1ccccc1Cl was read as gsp ag -22%, ClpP mod 0.6%, Sfp PPTase inh -3%, TRPML1 blocker 2, gsp antag 3%, Menin MLL FP FL -0.2 and TRPV1 potentiator 1.
`O=C(c1cc(C2CC2)on1)N1CCCC(N2CCN(c3cccc(C(F)(F)F)c3)CC2)C1` (centres undefined) gave gsp ag 17%[15.4 µM], Sfp PPTase inh 6%, TRPML1 blocker -4, gsp antag -22% and TRPV1 potentiator -5.
Cc1ccc(N2CC(C(=O)NCC3CCCO3)CC2=O)cc1Cl (centres undefined) was read as gsp ag 13%, ClpP mod -1.5%, Sfp PPTase inh 5%, TRPML1 blocker 4, gsp antag -5%, Menin MLL FP FL -0.9 and TRPV1 potentiator 4.
For O=C(Cc1ccc(Nc2nc3ccc(Br)cc3[nH]2)cc1)NCCc1cccs1 the results were ClpP mod -4.3%, Sfp PPTase inh inconclusive, TRPML1 blocker 15, gsp antag -9%, Menin MLL FP FL 2.7 and TRPV1 potentiator -11.
O=C(CN1CCN(S(=O)(=O)c2ccccc2)CC1)NCCc1ccccc1 was read as gsp ag 7%[15.4 µM], ClpP mod -3.6%, Sfp PPTase inh 9%, TRPML1 blocker -5, gsp antag 0% and TRPV1 potentiator -2.
For COc1cc(C2NC(=O)NC(C)=C2C(=O)OCC2CCCCC2)cc(Cl)c1O (centres undefined) the results were gsp ag -23%, ClpP mod -2.6%, Sfp PPTase inh 8%, TRPML1 blocker -2, gsp antag -4%, Menin MLL FP FL 13 and TRPV1 potentiator 9.
Screening CCCCc1nc2sc3c(=O)[nH]cnc3c2c2c1CCCC2 returned gsp ag -2%[15.4 µM], Sfp PPTase inh 8%, TRPML1 blocker 4, gsp antag 13%, Menin MLL FP FL 3.5 and TRPV1 potentiator 2.
For c1ccc2c(c1)ccc1ccccc12 the results were gsp ag 2%, ClpP mod -28%, TRPML1 blocker 7 and gsp antag 3%.
`Cc1ccc(NC(=S)NC2CCCC2)cc1` gave gsp ag -15%, ClpP mod 0.0%, Sfp PPTase inh 8%, TRPML1 blocker 8, gsp antag 3%, Menin MLL FP FL 1.9 and TRPV1 potentiator -16.
For S=C(Nc1ccccc1Cl)N1CCN(Cc2ccccc2)CC1 the results were gsp ag -18%, ClpP mod -8.6%, Sfp PPTase inh -3%, TRPML1 blocker -9, gsp antag 15%, Menin MLL FP FL 0.5 and TRPV1 potentiator -7.
For O=C(C1COc2ccccc2O1)N1CCN(c2nc3ccccc3s2)CC1 (centres undefined) the results were gsp ag 6%[15.4 µM], ClpP mod 0.7%, Sfp PPTase inh 12%, TRPML1 blocker 3, gsp antag -6% and TRPV1 potentiator 3.
`COc1ccc(NC(=O)C2CCC2)cc1S(=O)(=O)N1CCOCC1` gave gsp ag -26%, ClpP mod -1.1%, TRPML1 blocker 1, gsp antag 2% and TRPV1 potentiator 6.
`CC1(C)CC(=O)c2cc(OCC(=O)N3CCN(c4ccccc4F)CC3)ccc2O1` gave gsp ag -8%, ClpP mod inconclusive, Sfp PPTase inh 0%, TRPML1 blocker -5, gsp antag -6%, Menin MLL FP FL 1.9 and TRPV1 potentiator 11.
O=C(Nc1ccc(C(=O)O)cc1)/C(=C\C=C\c1ccccc1)NC(=O)c1ccccc1Br was read as gsp ag -30%, ClpP mod -1.8%, Sfp PPTase inh 4%, TRPML1 blocker -5, gsp antag -10%, Menin MLL FP FL -4.8 and TRPV1 potentiator 10.
For COc1ccc(-[n+]2c(C)cc(/C=C3\Sc4ccccc4N3C)cc2C)cc1 the results were gsp ag 16%, ClpP mod 1.6%, Sfp PPTase inh 20µM*, TRPML1 blocker 2, gsp antag -10%, Menin MLL FP FL inconclusive and TRPV1 potentiator inconclusive.
`COc1ccccc1N1CCN(C(=O)C2=CC=CN3CCS(=O)(=O)N=C23)CC1` gave gsp ag 1%, ClpP mod -5.8%, TRPML1 blocker 17, gsp antag 15% and TRPV1 potentiator -4.
CC(Sc1nncn1C)C(=O)Nc1ccc(S(N)(=O)=O)cc1 (centres undefined) was read as gsp ag -8%, ClpP mod -1.7%, Sfp PPTase inh 6%, gsp antag 13%, Menin MLL FP FL 3.0 and TRPV1 potentiator 5.
Screening COc1ccc(NC(=O)N(C)C[C@H]2Oc3ccc(NC(=O)Nc4c(C)noc4C)cc3C(=O)N([C@H](C)CO)C[C@H]2C)cc1 returned ClpP mod -4.8%, TRPML1 blocker 52 and gsp antag 9%.
Screening CCOc1ccccc1OCCOc1ccccc1CC returned gsp ag 12%, ClpP mod -1.5%, Sfp PPTase inh 20%, TRPML1 blocker -19, gsp antag 0%, Menin MLL FP FL 2.2 and TRPV1 potentiator -10.
COc1ccc(NC(=O)CN(C)C(=O)c2cccc(S(=O)(=O)Nc3ccc(OC)cc3)c2)cc1 was read as gsp ag -32%[inhibitor], ClpP mod inconclusive, TRPML1 blocker 8, gsp antag -7% and TRPV1 potentiator 1.
O=C(Cn1ccc([N+](=O)[O-])n1)c1ccccc1 was read as gsp ag inconclusive, ClpP mod 1.5%, Sfp PPTase inh 17%, TRPML1 blocker -24, gsp antag -9%, Menin MLL FP FL 3.3 and TRPV1 potentiator inconclusive.
Screening Cc1ccc(NC(=O)N[C@@H](CC(C)C)C(=O)O)c(C)c1 returned gsp ag -36%[inhibitor], ClpP mod 1.0%, Sfp PPTase inh 13%, TRPML1 blocker 17, gsp antag 5%, Menin MLL FP FL 0.9 and TRPV1 potentiator -10.
Screening C=C(C)Cn1c(CNC(C)=O)nc2ccccc21 returned gsp ag 5%, ClpP mod -1.2%, Sfp PPTase inh 18%, TRPML1 blocker -1, gsp antag 7%, Menin MLL FP FL 0.1 and TRPV1 potentiator 8.
Screening CC(C)N(C(=O)CSc1nnnn1C1CCCC1)C(C)C returned gsp ag -14%, ClpP mod 0.3%, Sfp PPTase inh 10%, TRPML1 blocker -10, gsp antag 4%, Menin MLL FP FL 3.7 and TRPV1 potentiator -3.
Screening CC(=O)c1ccc(N2CCN(C(=O)c3cccs3)C(C)C2)c(F)c1 (centres undefined) returned gsp ag -26%, ClpP mod -3.6%, Sfp PPTase inh -4%, TRPML1 blocker 22, gsp antag -14%, Menin MLL FP FL 4.1 and TRPV1 potentiator 17.

Rows were taken by chance (roughly 4.9% active in at least one column).
